CSC inhib = blocks cancer stem cells | cancer stem cell-like cells viability, luminescence | inhibition, % at 7.5 µM | actives 1.1% (n = 300,000);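 active = mean at 75% or more and at least half the replicates too; tested in HMLE shEcad cells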;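 note: 0% = median of negative and 100% = median of positive control wells; the first replicate is given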
eIF4H FP inh = inhibitors of RNA binding by human eIF4H; Q15056; eIF4H fluorescence polarization binding assay; inhibition, % at 35 µM; actives 0.94% (n = 290,000);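 active = 50% or more with normal probe brightness, or confirmed in later tests; about a fifth of its hits are not listed in these tables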;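 note: calls also rest on retests at 20 µM and on dose response follow-up; 0% = protein and probe with vehicle and 100% = probe without protein; strong numbers were not always called active; many hits fall short of the cut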
PABP polyA inh = blocks human PABP binding to poly(A) RNA; fluorescence polarization; P11940; actives 1% (n = 290,000); inhibition, % at 35 µM;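 active = 50% or more with normal probe brightness, or confirmed in later tests; about a fifth of its hits are not listed in these tables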;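 note: calls also rest on retests at 20 µM and on dose response follow-up; controls were probe without protein and protein plus probe with vehicle; some compounds called inactive have numbers as strong as hits; many hits fall short of the cut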
Target sequence (P11940 whole entry, looked up): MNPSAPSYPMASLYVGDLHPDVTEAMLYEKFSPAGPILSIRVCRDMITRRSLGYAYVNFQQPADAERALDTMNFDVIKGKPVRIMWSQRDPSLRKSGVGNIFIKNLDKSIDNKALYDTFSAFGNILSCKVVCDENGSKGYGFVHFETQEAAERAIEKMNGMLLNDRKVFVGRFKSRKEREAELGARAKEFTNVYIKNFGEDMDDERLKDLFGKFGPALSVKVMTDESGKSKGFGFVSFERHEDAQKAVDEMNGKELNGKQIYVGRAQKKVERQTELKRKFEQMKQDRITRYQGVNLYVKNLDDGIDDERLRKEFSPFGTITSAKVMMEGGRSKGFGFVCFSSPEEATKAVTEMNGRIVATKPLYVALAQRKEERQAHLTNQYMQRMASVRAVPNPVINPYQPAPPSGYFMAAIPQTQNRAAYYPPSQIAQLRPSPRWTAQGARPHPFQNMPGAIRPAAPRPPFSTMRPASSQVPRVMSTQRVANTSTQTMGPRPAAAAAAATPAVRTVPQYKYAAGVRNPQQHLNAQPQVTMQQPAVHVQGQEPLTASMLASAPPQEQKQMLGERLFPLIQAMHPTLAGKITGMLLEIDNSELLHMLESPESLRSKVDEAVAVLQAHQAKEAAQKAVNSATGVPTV
HIV Env fusion = inhibitors of HIV Env-mediated cell fusion; inhibition, % at 12.3 µM; HeLa-JRFL Env/CEM21 cell fusion, luciferase; actives 1.1% (n = 360,000);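 active = mean replicate inhibition score of at least 50 and every replicate individually at or above 50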;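 note: 0% = plate neutral controls and 100% = maraviroc near 300 nM; one replicate is shown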
Yeast UUG start = alters start codon recognition fidelity in yeast; S. cerevisiae UUG-firefly luciferase reporter, luminescence/redox ratio; activity score, % at 18.7 µM; actives 0.13% (n = 350,000);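 active = replicate mean at a twofold rise or more, about +100% in these data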;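 note: firefly luciferase made from a UUG start codon reports start codon fidelity; reporter light over untreated wells divided by growth signal over untreated wells; some hits fall short of that in this replicate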
Rce1 inh = yeast Ras-converting enzyme inhibition. Q03530. calls only. actives 0.27% (n = 290,000). AID 2563. yeast membranes, quenched prenylated peptide cleavage fluorescence;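 active = fall in fluorescence gain of 50% or more versus controls, with final raw signal at or below 3038400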;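 note: plate controls were neutral control wells for no effect and wells lacking membranes for full effect; tested at 10 µM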
MT1-MMP act inh = blocks activation of human MT1-MMP; actives 0.061% (n = 360,000); P50281; GFP/RFP ratio change, % at 20 µM; HT1080 RFP-PRO-GFP cells, GFP/RFP ratio fluorescence, overnight; percent of plate control window, DMSO zero; AID 651647;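 active = GFP/RFP ratio change of at least 30% with cell ATP level not reduced by more than half and red fluorescence within 50% of control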; note: strong numbers were not always called active
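Compound: 20 µM single dose, 1% DMSO / System: HT1080 RFP-PRO-GFP cells / Controls: DMSO and RFP-L50D-GFP cell wells / Read-out basis: GFP/RFP fluorescence ratio / Schedule: overnight compound exposure at 37 °C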
eIF4H FP inh retest = second read-out of eIF4H FP inh, no call of its own (marks repeat the call); inhibition, %; compound at 20 µM; confirmation average;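 mean of two retest wells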
PABP polyA inh retest = also measured in PABP polyA inh; calls as there; inhibition, %; compound at 20 µM; confirmation repeats;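 mean of two retest wells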
MT1-MMP act inh RFP = recorded beside MT1-MMP act inh, whose call it bears; RFP signal change, %; measured here: RFP expression control read;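 0 = vehicle wells; hits needed this value within 50% of zero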
Starred values were filed as active, the others as inactive; i = inactive; x = no result given. Not all compounds are listed. The share of hits here may be higher or lower than overall.

SMILES	CSC inhib	eIF4H FP inh	PABP polyA inh	HIV Env fusion	Yeast UUG start	Rce1 inh	MT1-MMP act inh	MT1-MMP act inh RFP	others
O=C(Nc1cccc(Oc2ccc(C(=O)O)c(C(=O)O)c2)c1)c1ccc(-c2ccccc2)cc1	-4	66*	13	12	-4	i	2	3	eIF4H FP inh retest=93*;PABP polyA inh retest=19
COc1cc(/C=C/CO)cc(OC)c1OC/C=C(\C)CCC=C(C)C	-1	-2	14	x	-14	i	-2	-12
COc1ccccc1NC(=O)CN1C(=O)COc2ccc(C)cc21	9	-5	3	8	7	i	2	3
Cc1c(NC(=O)c2cccs2)cccc1[N+](=O)[O-]	-7	-7	-1	-8	1	i	1	7
Cc1ccccc1-n1c(SCC(=O)N/N=C/c2sccc2C)nc2ccccc2c1=O	38	-10	1	-7	x	i	4	4
COCCNC(=O)C1(C)Cc2c(-c3ccc(N(C)C)cc3)ccnc2O1 (centres undefined)	x	x	x	12	-15	x	-3	-1
O=C(c1ccccc1Cc1ccccc1)N1CCN(S(=O)(=O)c2ccccc2)CC1	-18	-2	-9	-8	-16	i	-4	-4
CC(=O)c1ccccc1NC(=O)CSc1nnc2ccccn12	-8	0	4	x	x	i	x	x
COc1ccccc1NC(C)=O	-9	-6	-17	x	-12	i	5	7
CC(=O)NC(=O)Nc1sc(=S)n(C)c1C	-3	-8	-5	x	-17	i	x	x
CCOC(=O)c1c(CN2CCN(c3ccccc3)CC2)oc2ccc(O)cc12	20	-5	-29	-23	9	i	8	5
COc1ccc(/C=C/C(=O)c2cc(Br)ccc2O)cc1OC	9	15	-6	3	x	i	1	-1
Cc1ccc(C(C(=O)NCc2ccccc2)N(Cc2cccs2)C(=O)c2ccc3c(c2)OCCO3)cc1 (centres undefined)	44	-4	6	-2	x	i	-31	-23
COc1cc(NCC(=O)Nc2cccc(S(=O)(=O)N3CCCCC3)c2)cc(OC)c1OC	-15	x	x	33	-5	x	2	1
Cc1nnc(NC(=O)c2oc3c(ccc4ccccc43)c2C)s1	20	-16	-10	-59	-18	i	12	5
Cc1nc2ccc(NC(=O)N3CCC(c4ccccc4)C3)cc2nc1C (centres undefined)	-7	-1	2	x	11	i	1	5
COc1cccc(S(=O)(=O)Nc2ccc(C(O)(C(F)(F)F)C(F)(F)F)cc2)c1	x	x	x	11	-10	x	5	-5
COc1cccc(OC)c1C(=O)N1CCN(S(=O)(=O)c2ccccc2)CC1	-13	5	11	x	6	i	1	2
Cc1cc(N2CC34C=CC(O3)C(C(=O)O)C4C2=O)no1 (centres undefined)	-20	6	8	-7	5	i	3	1
CN(C)/C=C/C(=O)c1ccccc1F	-18	3	-4	3	x	i	-1	2
CCC1COCCS(=O)(=O)N1Cc1ccc(C)cc1 (centres undefined)	15	11	5	x	4	i	0	2
COc1ccc(CN2CCN(C(=O)CC(C)C)CC2)c(OC)c1OC	-10	13	-1	x	9	i	3	3
CCOC(=O)C1CCN(S(=O)(=O)c2ccc(OC)c(Cl)c2Cl)CC1	-6	-4	3	x	-10	i	7	5
O=C(O)C(Sc1ccncn1)c1ccccc1 (centres undefined)	6	6	1	2	x	i	0	4
CCCNC(=O)Cn1nc(C(F)(F)F)cc1C	x	1	-3	-12	0	i	-1	1
Cn1cccc1CC(=O)N/N=C/c1ccc(Cl)c([N+](=O)[O-])c1	8	-7	17	9	-5	i	3	-3
Cc1ccc(-c2csc(NC(=O)CN3CCC(C(N)=O)CC3)n2)cc1	-6	1	13	3	-15	i	4	-3
COCCNC(=S)Nc1ccc([N+](=O)[O-])cc1C	-2	-6	6	-5	x	i	1	0
Cc1cccc(C)c1NC(=O)C(NC(=O)c1ccccn1)c1ccccc1[N+](=O)[O-] (centres undefined)	x	-2	-3	-6	-4	i	5	4
O=C(c1ccc2c(c1)OCO2)N1CCN(c2ncccn2)CC1	0	5	2	13	x	i	0	1
CN1CCN(C(=O)c2cnn(-c3ccccc3)c2NC(=O)c2ccccc2Br)CC1	-1	2	2	17	-10	i	-5	-4
CC(C)[C@H](NC(=O)c1ccco1)C(=O)OCC(=O)Nc1ccc(Cl)c(S(=O)(=O)N(C)C)c1	-11	12	2	4	7	x	3	-1
Cc1cnc(C(=O)N2CCCC(N3CCN(c4ccccc4F)CC3)C2)cn1 (centres undefined)	x	-5	-2	-9	-13	i	-1	-2
CC1CN(CC(=O)c2c(N)n(Cc3ccccc3)c(=O)n(C)c2=O)CC(C)O1 (centres undefined)	-4	-10	2	3	20	i	14	-2
Nc1c(C(=O)c2ccccc2)sc2c1c(=O)[nH]c(=O)n2-c1ccccc1	x	-1	6	x	7	i	1	-4
COc1cc(SC)ccc1C(=O)Nc1ccc2ncccc2c1	14	-1	2	-253	-29	i	-1	-4
CCOC(=O)c1cc2c(=O)n3ccccc3nc2n(Cc2ccco2)c1=NC(=O)c1cccnc1	-2	43	34	20	-13	i	-9	1
Cc1nc(NC(=O)c2ccc(F)cc2)sc1C(=O)Nc1ccc2c(c1)CCC2	35	-3	-5	-7	-23	i	4	-1
N#C/C(=C\c1ccncc1)c1ccccn1	10	-5	-6	-2	-14	i	-8	-7
Cc1cc(/C([O-])=C(/C(=S)Nc2ccc(F)cc2)[n+]2ccccc2)c(C)n1-c1ccc(F)cc1	0	67*	32	x	-7	i	0	5	eIF4H FP inh retest=79*;PABP polyA inh retest=42

Continued; it opens with the 2 that closed the last part.
SMILES	CSC inhib	eIF4H FP inh	PABP polyA inh	HIV Env fusion	Yeast UUG start	Rce1 inh	MT1-MMP act inh	MT1-MMP act inh RFP	others
N#C/C(=C\c1ccncc1)c1ccccn1	10	-5	-6	-2	-14	i	-8	-7
Cc1cc(/C([O-])=C(/C(=S)Nc2ccc(F)cc2)[n+]2ccccc2)c(C)n1-c1ccc(F)cc1	0	67*	32	x	-7	i	0	5	eIF4H FP inh retest=79*;PABP polyA inh retest=42
Cc1ccnc(NS(=O)(=O)Cc2ccccc2)c1	-7	1	-7	-18	0	i	2	11
CN(C)c1ccnc2sc3c(=O)n(Cc4ccccc4)cnc3c12	29	-5	-3	x	x	i	-13	-8
Cc1c(C(=O)Nc2cc(F)ccc2F)sc2nc3n(c(=O)c12)CCCCC3	5	x	x	-7	0	i	2	2
CCc1ccc(OCC(=O)N2CCc3ccccc32)cc1	7	-8	1	-87	-16	i	1	3
COC(=O)c1ccc(OC(=O)N2CCOCC2)cc1	-12	-7	0	10	-14	i	-1	1
Cc1ccc(/C=c2/sc3nnc(-c4ccccc4Cl)n3c2=O)o1	-6	-1	17	-1	-15	i	-5	8
COc1ccccc1OCC(=O)OCC(=O)Nc1sccc1C(N)=O	2	18	12	23	x	i	2	5
COC(=O)C(C(C)C)N1CCc2c(C)nc3c(C#N)cnn3c21 (centres undefined)	-8	7	3	5	x	i	-7	-2
O=C(COc1ccc(-c2nnco2)cc1)Nc1ccc(F)c(Cl)c1	x	x	x	-7	-25	x	6	-2
CCOC(=O)Cc1nnc(NC(=O)Nc2ccccc2)s1	-8	9	-8	x	-14	i	2	1
Cc1cc(C(=O)NC2CCCCC2)c(C)o1	x	x	x	8	-10	i	7	0
COC(=O)C(O)(CC(=O)Nc1ccc(OC)cc1)C(F)(F)F (centres undefined)	-8	-6	-10	-8	-11	i	0	-1
O=C(Nc1ccc(C(F)(F)F)cc1[N+](=O)[O-])O[C@H]1[C@H](Cc2ccccc2)NS(=O)(=O)[C@H]2C[C@@H]3C=C[C@]12O3	2	x	x	x	-11	x	0	-1
CCOC(=O)N1CCN(S(=O)(=O)c2ccc(C(=O)N(CCCN(C)C)c3nc4c(F)cc(F)cc4s3)cc2)CC1	-19	x	x	5	11	i	2	7
Cc1ccc(-c2ccc3nnc(SCC(N)=O)n3n2)cc1	-9	-8	-3	10	x	i	6	2
CSc1nnc2c3cc(F)ccc3n(C)c2n1	1	-10	-4	-292	40	i	1	3
Cc1cc(C)c(C2=NOC3C4CCC(C4)C23)c(C)c1 (centres undefined)	-2	2	-15	1	x	i	4	9
CCOC(=O)C1C2C=CC3(CN(C4CCCC4)C(=O)C13)O2 (centres undefined)	-9	-8	-3	x	-8	i	-3	1
CC1(C)CC[C@]2(C(=O)O)CC[C@]3(C)C(=CCC4[C@@]5(C)CC[C@H](O)C(C)(C)C5CC[C@]43C)C2C1 (some centres undefined)	8	4	9	8	-9	i	7	-9
Nc1nc(SCC(=O)Nc2ccc(Br)cc2F)n[nH]1	-2	4	5	x	-3	x	-5	-4
Cc1nn2c(-c3ccc(Cl)cc3)nnc2s1	4	-4	-4	-56	-22	i	4	3
C=CCN1C(=O)/C(=C2/Sc3ccccc3N2CC)SC1=S	-2	44	8	-352	-2	i	-9	1
CCCn1c(SCC(=O)NC(=O)NCc2ccccc2)n[nH]c1=O	-12	x	x	-2	-14	x	-1	5

Ordered by formula weight (ascending): three of the compounds above
SMILES	CSC inhib	eIF4H FP inh	PABP polyA inh	HIV Env fusion	Yeast UUG start	Rce1 inh	MT1-MMP act inh	MT1-MMP act inh RFP	others
Cc1ccc(-c2ccc3nnc(SCC(N)=O)n3n2)cc1	-9	-8	-3	10	x	i	6	2
COC(=O)C(O)(CC(=O)Nc1ccc(OC)cc1)C(F)(F)F (centres undefined)	-8	-6	-10	-8	-11	i	0	-1
Cc1ccc(/C=c2/sc3nnc(-c4ccccc4Cl)n3c2=O)o1	-6	-1	17	-1	-15	i	-5	8

Reprinted at random: 5 records from the list
SMILES	CSC inhib	eIF4H FP inh	PABP polyA inh	HIV Env fusion	Yeast UUG start	Rce1 inh	MT1-MMP act inh	MT1-MMP act inh RFP	others
Cc1c(C(=O)Nc2cc(F)ccc2F)sc2nc3n(c(=O)c12)CCCCC3	5	x	x	-7	0	i	2	2
CN(C)c1ccnc2sc3c(=O)n(Cc4ccccc4)cnc3c12	29	-5	-3	x	x	i	-13	-8
Nc1nc(SCC(=O)Nc2ccc(Br)cc2F)n[nH]1	-2	4	5	x	-3	x	-5	-4
COC(=O)C(C(C)C)N1CCc2c(C)nc3c(C#N)cnn3c21 (centres undefined)	-8	7	3	5	x	i	-7	-2
Cc1nn2c(-c3ccc(Cl)cc3)nnc2s1	4	-4	-4	-56	-22	i	4	3

Screens: PubChem BioAssay, several laboratories
